Compound activity: PubChem, several laboratories
RGS16-Gao: modulates binding between human RGS16 and Galphao. bead-based flow cytometry RGS16-Galphao binding, fluorescence; actives lie on both sides. binding response (% of control), % at 10 µM. actives 0.38% (n = 220,000);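 active = below 25% or above 175%, edge rows of some plates excepted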;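 note: Galphao activated by GDP with aluminum fluoride before binding; 100% = wells without compound and 0% = beads without RGS; some results beyond the cut were filed as inactive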
PKD1 inh: inhibitors of human PKD1 kinase; Q15139; PKD1 kinase fluorescence polarization assay; inhibition, %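 (about 10 µM by stock and volumes)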; actives 0.056% (n = 200,000);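 active = inhibition of 50% or more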;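 note: controls were vehicle for no effect and a reference inhibitor for full effect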
Target sequence (Q15139 whole entry, looked up): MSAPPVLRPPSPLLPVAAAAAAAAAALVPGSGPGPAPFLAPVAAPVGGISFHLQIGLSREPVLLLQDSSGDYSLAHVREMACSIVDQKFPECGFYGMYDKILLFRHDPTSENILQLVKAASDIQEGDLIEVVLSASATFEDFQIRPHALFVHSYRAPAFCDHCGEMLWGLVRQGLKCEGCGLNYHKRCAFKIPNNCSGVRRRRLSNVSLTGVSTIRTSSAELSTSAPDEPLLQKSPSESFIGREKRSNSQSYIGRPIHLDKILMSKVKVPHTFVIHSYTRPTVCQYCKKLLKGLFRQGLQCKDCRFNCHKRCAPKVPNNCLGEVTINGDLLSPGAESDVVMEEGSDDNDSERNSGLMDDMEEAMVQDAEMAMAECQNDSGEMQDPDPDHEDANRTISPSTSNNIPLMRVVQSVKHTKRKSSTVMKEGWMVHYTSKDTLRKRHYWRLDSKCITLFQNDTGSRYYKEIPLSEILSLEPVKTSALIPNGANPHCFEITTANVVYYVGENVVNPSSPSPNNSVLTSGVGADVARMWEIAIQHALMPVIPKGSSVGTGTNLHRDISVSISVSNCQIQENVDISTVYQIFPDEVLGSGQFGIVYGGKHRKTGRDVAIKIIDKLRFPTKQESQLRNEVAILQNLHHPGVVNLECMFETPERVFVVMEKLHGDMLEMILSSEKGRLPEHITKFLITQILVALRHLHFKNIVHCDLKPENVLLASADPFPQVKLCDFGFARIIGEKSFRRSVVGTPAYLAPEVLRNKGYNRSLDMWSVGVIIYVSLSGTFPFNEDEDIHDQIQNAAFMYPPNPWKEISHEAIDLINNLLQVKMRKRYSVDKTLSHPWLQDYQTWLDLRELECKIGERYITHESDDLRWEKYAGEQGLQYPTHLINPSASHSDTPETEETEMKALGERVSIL
INS promoter inh: TRM-6 insulin promoter activity inhibition; actives 0.9% (n = 130,000); inhibition, % at 2 µM; TRM-6 cells (human fetal islet line), insulin promoter-eGFP reporter, imaging; reporter expression induced with tamoxifen;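 active = inhibition above the mean plus 3 SD, with well images judged a real hit on visual review, cut at about 60% in these data, passing the limit was not always enough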
GALR2 agonist: agonists of human galanin receptor 2 (GALR2) | GALR2-expressing cells, agonist activation read-out | O43603 | actives 0.48% (n = 140,000) | activation, %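 (tested at 5 µM)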 | AID 803;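 active = above mean plus 3 SD of all compounds, about 5% in these data, not always enough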;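 note: 0% = vehicle buffer wells and 100% = reference agonist at full effect; tested in CHO reporter cells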
HSV augment: increases HSV replication in cells | HSV replication augmentation in cells, fold increase | maximum fold increase | actives 0.005% (n = 220,000) | AID 1956;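 active = peak rise of 1.5-fold or more in the series; tested in PC3 cells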;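 note: first round at 10 µM; read as green reporter fluorescence; hits show the peak of a series up to 25 µM; 1 = signal of infected wells without compound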
INS promoter inh cell count: recorded beside INS promoter inh, whose call it bears; normalized cell count, %; measured here: cell count, toxicity; reference of the scale not given here;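 cells exposed to compound for 48 h; stained nuclei by imaging scaled within each plate; lower means fewer cells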
HSV augment primary fold: second read-out of HSV augment, no call of its own (marks repeat the call); fold increase; compound at 10 µM; measured here: primary screen fold increase 10 uM; tested in PC3 cells;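 GFP signal in the first replicate; 1 = infected wells without compound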
* marks the source's active call; other numbers are inactive results; i = inactive; nt = no result given. Random draw from the library; about 1.3% have a hit in one of these screens.

The line under a structure holds: RGS16-Gao	PKD1 inh	INS promoter inh	INS promoter inh cell count	GALR2 agonist	HSV augment	HSV augment primary fold
COc1ccc(N=C2C(=O)Nc3ccccc32)cc1
  101	-2	35	119	-2.8	i	1.1
O=C(NCCN1CCOCC1)C1CCN(S(=O)(=O)N2CCCC2)CC1
  94	-8	-7	95	nt	i	0.91
COc1ccc(-c2cc(C(F)(F)F)nc(SCC(=O)NCc3cccs3)n2)cc1OC
  100	-1	6	121	1.5	i	0.85
CCc1cccc(C)c1NC(=O)CCCSc1nc2ccccc2s1
  91	13	-100	52	-1.5	i	1.1
Cc1cc(NC(=O)c2cc(-c3ccccc3)on2)no1
  98	-6	11	103	-0.7	i	1.2
COc1cc(CN2CCC(CO)(Cc3cccc(C(F)(F)F)c3)CC2)ccc1F
  84	nt	nt	nt	nt	i	0.82
O=C(CNC(=O)c1cccc(Cl)c1)N/N=C/C=C/c1ccccc1
  108	2	nt	nt	0.8	i	1.1
c1ccc(Cn2nc(-c3ccccc3)nc2-c2ccccc2)cc1
  31	-10	17	88	-0.9	i	1
CC(C)N1C/C(=C/c2cccnc2)C(=O)/C(=C/c2cccnc2)C1
  65	5	-58	70	0.5	i	0.88
CC(=O)Nc1ccc(S(=O)(=O)NC(C(=O)O)C(C)C)cc1 (configuration not stated)
  nt	2	50	88	-2.5	i	1.2
O=C(NCCCn1ccnc1)C(=O)Nc1ccccc1
  105	-2	-127	99	nt	i	0.98
CC(=O)C1=C(O)C(=O)N(CCC(=O)O)C1c1cccc(F)c1 (configuration not stated)
  -5	8	nt	nt	-1.3	nt	nt
COc1ccccc1-n1cnc2sc(-c3ccccc3)cc2c1=O
  105	-4	nt	nt	-1.4	nt	nt
O=C(c1cccs1)N1CCN(C2CCN(Cc3ccccc3)CC2)CC1
  102	-1	-3	65	-1.5	i	0.99
C=CCn1c(=O)c(C(C)=O)cn(N(C)c2ncc(C(F)(F)F)cc2Cl)c1=O
  100	-7	nt	nt	nt	i	0.91
O=C(NCC1CCCO1)c1cccc(N2CCCC2=O)c1 (configuration not stated)
  99	-2	-6	124	-0.3	i	0.95
O=S(=O)(/N=C(/Nc1ccccc1F)c1ccccc1)c1ccccc1
  103	1	-42	94	-1.6	i	1
C=CCNC(=S)N/N=C/c1ccc(C(F)(F)F)cc1
  101	1	nt	nt	nt	i	0.99
OCCC1CN(Cc2cccn2-c2ccccn2)CCN1C1CCCC1 (configuration not stated)
  99	-5	nt	nt	nt	i	1.1
O=S1(=O)NC[C@]23C[C@H](c4ccc(F)cc4)[C@@H](C[C@@H]21)O3
  92	nt	nt	nt	nt	i	1.2

Compounds above that contain a COOH group (2):
The line under a structure holds: RGS16-Gao	PKD1 inh	INS promoter inh	INS promoter inh cell count	GALR2 agonist	HSV augment	HSV augment primary fold
CC(=O)Nc1ccc(S(=O)(=O)NC(C(=O)O)C(C)C)cc1 (configuration not stated)
  nt	2	50	88	-2.5	i	1.2
CC(=O)C1=C(O)C(=O)N(CCC(=O)O)C1c1cccc(F)c1 (configuration not stated)
  -5	8	nt	nt	-1.3	nt	nt

(listing goes on)
The line under a structure holds: RGS16-Gao	PKD1 inh	INS promoter inh	INS promoter inh cell count	GALR2 agonist	HSV augment	HSV augment primary fold
Cc1cc(C)c(NC(=S)NC(NC(=O)c2ccccc2)C(Cl)(Cl)Cl)c(C)c1 (configuration not stated)
  105	-6	7	126	0.0	i	0.8
CCn1c(N)c(C(=O)NCc2ccc3c(c2)OCO3)sc1=S
  114	-4	-29	139	-1.4	i	0.8
O=c1[nH]c(SCc2n[nH]c(=S)n2-c2ccccc2)nc2sc3c(c12)CCC3
  99	0	-17	72	-0.8	i	1.2
Nc1ccc2oc(C3CCCCC3)nc2c1
  98	12	13	71	nt	i	0.89
C=CCn1c(SCC(=O)Nc2nc3ccccc3s2)nnc1-c1ccccc1O
  101	0	41	84	-1.2	i	0.91
O=C(Nc1ccc2c(c1)OCO2)c1cnc2n(c1=O)CCS2
  99	2	50	118	-2.8	i	0.89
Cc1ccc(C(=O)CSc2n[nH]c(C)n2)cc1
  100	4	nt	nt	-2.6	i	1.2
O=C(N/N=C/c1c(-c2ccccc2)[nH]c2ccccc12)c1cccnc1
  100	6	nt	nt	nt	i	0.96
O=C(NCc1n[nH]c(=S)n1-c1ccc(F)cc1)c1ccc(S(=O)(=O)N2CCOCC2)cc1
  93	-1	nt	nt	nt	i	1.1
COc1ccc(C(=O)C[n+]2cccc(C)c2)cc1
  100	-9	-124	63	-1.2	i	1
O=C(NCC(c1cccnc1)N1CCOCC1)c1cccc(Cl)c1 (configuration not stated)
  99	-5	-12	92	-2.2	i	0.97
CCOC(=O)c1c(CSc2ccsc2)n(C)c2cc(Br)c(O)c(CN(C)C)c12
  98	nt	nt	nt	nt	i	0.81
COc1ccc(CN2C(=O)c3oc4ccccc4c(=O)c3C2c2ccc(O)c(OC)c2)cc1 (configuration not stated)
  91	nt	nt	nt	nt	i	0.82
Fc1ccccc1Oc1nc(-c2ccncc2)nc2ccccc12
  100	nt	nt	nt	nt	i	0.9
COc1ccccc1NC(=S)NC(=O)CC(C)C
  104	-3	-63	61	0.5	i	0.91
O=C(c1ccco1)N1CCN(c2nc(C3CC3)nc3sc4c(c23)CCCC4)CC1
  59	-13	-90	122	1.6	i	1.1
COc1ccccc1/C=C1/SC(=O)N(CCC(=O)Nc2ccc(S(=O)(=O)Nc3nccs3)cc2)C1=O
  103	-8	28	99	-0.8	i	0.99
O=C(CSc1ccc(-c2ccco2)nn1)c1ccc(F)cc1
  97	-4	26	120	-1.1	i	0.97
O=C(Cn1cnc2c(nnn2Cc2ccccc2)c1=O)c1ccccc1
  95	-2	nt	nt	-0.7	nt	nt
Cc1cc(/C=C2\NC(=O)N(Cc3ccc(Cl)cc3)C2=O)c(C)n1C
  72	3	55	79	0.2	i	1.1
O=C(NCCN1CCCC1)c1ccc(Cl)cc1
  107	-5	nt	nt	nt	i	1.1
CN(C)CCNC(=O)c1cc2c(=O)n(C)c3ccccc3c2n1C
  95	4	nt	nt	-0.9	i	0.95
O=C(NN=C1CCCC1)c1[nH]c2ccc(Br)cc2c1-c1ccccc1
  110	nt	nt	nt	nt	i	0.72
Cc1cc(C)cc(N(CC(=O)Nc2ccccc2-c2ccccc2)S(=O)(=O)c2ccccc2)c1
  102	0	-100	94	1.6	i	1
COC(=O)c1cc2nc(-c3ccc(C)cc3)cc(C(F)(F)F)n2n1
  93	3	14	158	nt	i	1.2
O=C(NCc1ccncc1)c1c(F)c(F)c(F)c(F)c1F
  99	5	18	129	0.6	i	1
O=C(Nc1cccc(Cl)c1Cl)c1snnc1-c1ccccc1
  101	7	nt	nt	-0.8	i	0.98
COc1ccc(S(=O)(=O)N2CCC(NC(=O)OCc3c(Cl)cccc3Cl)CC2)cc1
  104	-11	-7	57	0.3	i	0.97
COc1ccc(NC(=O)C(c2ccc(C)cc2)N(C)C(=O)CC2NC(=O)NC2=O)cc1 (configuration not stated)
  104	2	-9	103	0.2	i	1
O=C(NCC(=O)N(Cc1ccccc1)C(C(=O)NCC1CCCO1)c1ccccc1)c1cccs1 (configuration not stated)
  98	-3	16	100	-4.6	i	0.98
COC(=O)Cc1[nH]n(-c2ccccc2)c(=O)c1C=Nc1ccc(C)cc1
  112	nt	nt	nt	nt	i	0.74
Cn1c(SCc2ccccc2)nnc1-c1ccco1
  99	10	nt	nt	nt	i	1.1
CCOC(=O)Cc1nnc2c(Nc3ccc(Cl)cc3)nc3nonc3n12
  68	-9	31	185	-3.7	i	0.95
Nc1ccccc1C(=O)Nc1ccc(Cl)cc1Cl
  103	nt	nt	nt	nt	i	0.96
Cc1nc2ccc(NC(=O)NCc3ccco3)cc2s1
  109	3	-31	129	0.1	i	0.91
O=C(NN1CCOCC1)c1cc(-c2ccc(Cl)c(Cl)c2)nc2ccccc12
  108	-6	-21	124	-0.9	i	0.97
O=C(NCc1ccco1)C1CCN(S(=O)(=O)c2ccc(-n3cnnn3)cc2)CC1
  99	-4	-53	102	-3.1	i	1
CCn1c(=O)n(CCc2ccccc2)c(=O)c2c3c(sc21)CCCC3
  101	-11	37	93	-2.4	i	1.1
O=C(c1ccco1)N1CCN(S(=O)(=O)c2ccc(Oc3ccccc3)cc2)CC1
  101	-8	30	154	-2.6	i	0.96
N#CCc1c(C#N)c(N)nc(Nc2ccccc2)c1C#N
  97	nt	nt	nt	nt	i	0.92
O=C(NCCN1CCN(C(=O)Nc2ccccc2)CC1)Nc1ccccc1
  110	-4	nt	nt	-1.7	i	1
CC(C)NC(=O)C1CCCN(c2nnc(-n3cccc3)s2)C1 (configuration not stated)
  115	-4	nt	nt	-4.8	i	1
CC(=O)CSc1nc2cc3c(cc2cc1C#N)OCCO3
  101	-6	-346	68	nt	nt	nt
CC(C)(C)NC(=O)COc1ccc(-c2ccccc2)cc1
  100	3	nt	nt	-1.0	i	1.1
Cc1ccc(SCC(=O)NCC2CCCO2)cc1 (configuration not stated)
  109	8	-47	103	nt	i	0.97
CCN(CC)S(=O)(=O)c1cccc(C(=O)NCC(c2ccccc2)N(C)C)c1 (configuration not stated)
  106	-12	-22	91	nt	i	1
Nc1ccccc1NC(=O)c1ccccc1
  111	1	64	122	-2.7	i	1
O=C(COC(=O)c1ccccc1C(=O)c1ccc(Cl)c([N+](=O)[O-])c1)NC1CCCCCC1
  99	6	29	84	-2.2	i	0.39
COn1c(SCc2cccc(Cl)c2)nc2ccccc2c1=O
  103	1	26	58	-1.7	i	1
C=CCNC(=S)NNC(=O)c1csc(C)c1CC
  104	1	-3	62	-0.6	i	1.1
COC(=O)C(Cc1ccc(OC(=O)c2ccccc2Cl)cc1)N1Cc2ccccc2C1=O (configuration not stated)
  101	0	24	123	-2.1	i	0.75
Cc1cc(NC(=O)COC(=O)C(Cc2ccccc2)NC(=O)c2ccco2)no1 (configuration not stated)
  79	-9	13	128	-2.7	i	0.93
CCOC(=O)C(=NCCCN1CCOCC1)NNc1cccc(C(F)(F)F)c1
  100	-6	nt	nt	nt	i	0.93
Cn1ccs/c1=N\C(=O)Nc1cccc(Cl)c1
  102	-3	nt	nt	nt	i	1.1
CCNC(=O)CC1C(=O)N(c2ccc(F)cc2)C(=O)N1Cc1ccccn1 (configuration not stated)
  94	3	-9	116	-1.6	i	0.95
C=CCNCCCCOc1ccc(OCC)cc1
  97	0	-39	82	-1.9	nt	nt
COc1ccc(-c2ccc(CCC(=O)O)n2CC(=O)Nc2cccc(OC)c2)cc1
  97	-2	nt	nt	nt	i	1.1
Cc1nnc(SCC(=O)c2ccc(Cl)cc2)s1
  102	-3	71*	122*	nt	i	0.99
CCNC(=O)c1ccc(N(C)S(=O)(=O)c2cccs2)cc1
  114	-5	0	191	nt	i	1
CN1C(=O)CC(c2ccco2)Sc2ccccc21 (configuration not stated)
  103	6	nt	nt	-2.7	nt	nt

Not a retest: entries from further up.
The line under a structure holds: RGS16-Gao	PKD1 inh	INS promoter inh	INS promoter inh cell count	GALR2 agonist	HSV augment	HSV augment primary fold
Cc1nnc(SCC(=O)c2ccc(Cl)cc2)s1
  102	-3	71*	122*	nt	i	0.99
CCNC(=O)c1ccc(N(C)S(=O)(=O)c2cccs2)cc1
  114	-5	0	191	nt	i	1
CN1C(=O)CC(c2ccco2)Sc2ccccc21 (configuration not stated)
  103	6	nt	nt	-2.7	nt	nt
